Screening results deposited in PubChem by several laboratories.
PABP polyA inh: PABP poly(A) RNA binding inhibitors, primary screen, biochemical, fluorescence polarization, uHTS; Polyadenylate-binding protein 1 (Homo sapiens), P11940; inhibition, % at 35 µM; 290,000 compounds, 1% hits;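 active = 50% or more with normal probe brightness, or confirmed in later tests; inconclusive = above 50% with abnormal brightness, or retests that disagree; inactive = below 50% or failed in later tests; about a fifth of its hits are not listed in these tables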;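 note: calls also rest on retests at 20 µM and on dose response follow-up; controls were probe without protein and protein plus probe with vehicle; some compounds called inactive have numbers as strong as hits; many hits fall short of the cut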
Target sequence (P11940 whole entry, looked up): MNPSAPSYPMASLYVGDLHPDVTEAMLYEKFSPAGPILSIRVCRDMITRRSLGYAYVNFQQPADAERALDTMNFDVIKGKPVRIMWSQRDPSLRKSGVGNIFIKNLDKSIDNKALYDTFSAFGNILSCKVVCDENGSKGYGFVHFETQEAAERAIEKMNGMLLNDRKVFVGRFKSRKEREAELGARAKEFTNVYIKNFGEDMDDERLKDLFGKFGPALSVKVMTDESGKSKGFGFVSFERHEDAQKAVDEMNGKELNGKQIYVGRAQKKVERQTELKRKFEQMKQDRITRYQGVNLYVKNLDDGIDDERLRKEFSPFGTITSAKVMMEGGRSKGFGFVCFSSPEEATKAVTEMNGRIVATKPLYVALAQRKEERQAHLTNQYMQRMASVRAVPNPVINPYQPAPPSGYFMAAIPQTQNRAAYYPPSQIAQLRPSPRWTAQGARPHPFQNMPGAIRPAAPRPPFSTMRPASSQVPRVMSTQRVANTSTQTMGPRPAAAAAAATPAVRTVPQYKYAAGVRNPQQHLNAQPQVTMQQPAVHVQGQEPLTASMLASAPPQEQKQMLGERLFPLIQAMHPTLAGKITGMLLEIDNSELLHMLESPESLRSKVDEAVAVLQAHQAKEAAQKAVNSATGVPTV
HIV Env fusion: inhibitors of HIV-1 Env-driven cell-cell fusion, primary screen, HeLa-JRFL effector, CEM21 target cells, luciferase. 360,000 compounds, 1.1% hits. inhibition, % at 12.3 µM;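 active = mean replicate inhibition score of at least 50 and every replicate individually at or above 50; inconclusive = only one of the two criteria met; inactive = mean below 50 and not all replicates reaching 50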;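 note: 0% = plate neutral controls and 100% = maraviroc near 300 nM; one replicate is shown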
UUG fidelity: modulators of yeast start codon fidelity, primary screen, whole organism, S. cerevisiae, single point, plate reader. 350,000 compounds, 0.13% hits. S. cerevisiae UUG-firefly luciferase reporter, luminescence/redox ratio. activity score, % at 18.7 µM. AID 602363, 2012;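 active = replicate mean at a twofold rise or more, about +100% in these data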;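 note: firefly luciferase made from a UUG start codon reports start codon fidelity; reporter light over untreated wells divided by growth signal over untreated wells; some hits fall short of that in this replicate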
CSC inhib: cancer stem cell viability inhibitors, primary screen, luminescence; cancer stem cell-like cells viability; inhibition, % at 7.5 µM; 300,000 compounds, 1.1% hits; AID 2717, 2010;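 active = mean at 75% or more and at least half the replicates too; inconclusive = mean and replicates disagree; tested in HMLE shEcad cells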;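 note: 0% = median of negative and 100% = median of positive control wells; the first replicate is given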
eIF4H inh: human eIF4H binding inhibitors, primary screen, translation initiation inhibitor project, biochemical, uHTS, fluorescence polarization. eIF4H fluorescence polarization binding assay. 290,000 compounds, 0.94% hits. Eukaryotic translation initiation factor 4H (Homo sapiens), Q15056. inhibition, % at 35 µM;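 active = 50% or more with normal probe brightness, or confirmed in later tests; inconclusive = above 50% with abnormal brightness, or retests that disagree; inactive = below 50% or failed in later tests; about a fifth of its hits are not listed in these tables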;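 note: calls also rest on retests at 20 µM and on dose response follow-up; 0% = protein and probe with vehicle and 100% = probe without protein; strong numbers were not always called active; many hits fall short of the cut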
MT1-MMP act inh: blockers of MT1-MMP proenzyme processing, primary screen, HT1080 RFP-PRO-GFP cells, GFP/RFP fluorescence; Matrix metalloproteinase-14 (Homo sapiens), P50281; GFP/RFP ratio fluorescence, overnight; percent of plate control window, DMSO zero; GFP/RFP ratio change, % at 20 µM; 360,000 compounds, 0.061% hits; AID 651647, 2012;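 active = GFP/RFP ratio change of at least 30% with cell ATP level not reduced by more than half and red fluorescence within 50% of control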; note: strong numbers were not always called active
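Assay system: HT1080 cells carrying an RFP-PRO-GFP reporter | Dosing: Single dose of 20 µM compound, 1% DMSO final | Incubation: Cells overnight before dosing, compound overnight, 37 °C, 5% CO2 | Evaluation: GFP/RFP fluorescence ratio | Control set: DMSO and RFP-L50D-GFP cell wells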
Rce1 inhib: yeast Rce1p protease inhibitors, primary screen, biochemical, fluorescence, cell-free homogeneous; CAAX prenyl protease 2 (Saccharomyces cerevisiae (strain ATCC 204508 / S288c)), Q03530; yeast membranes, quenched prenylated peptide cleavage fluorescence; calls only; 290,000 compounds, 0.27% hits;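 active = fall in fluorescence gain of 50% or more versus controls, with final raw signal at or below 3038400; inconclusive = same 50% fall but final raw signal above 3038400; inactive = fall in fluorescence gain under 50%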;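 note: plate controls were neutral control wells for no effect and wells lacking membranes for full effect; tested at 10 µM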
MT1-MMP act inh RFP: second read-out of MT1-MMP act inh, no call of its own (marks repeat the call); RFP signal change, %; measured here: RFP expression control read;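 0 = vehicle wells; hits needed this value within 50% of zero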
Numbers without * were called inactive; i = inactive; ? = inconclusive; nt = not tested or not shown.

The first four compounds, to show the layout:
SMILES | PABP polyA inh | HIV Env fusion | UUG fidelity | CSC inhib | eIF4H inh | MT1-MMP act inh | MT1-MMP act inh RFP | Rce1 inhib
CCc1nc2ccc(C(=O)N(C)CCCN(C)C)cn2c1N(C)C(=O)C1CCCCC1 | nt | -4.3 | -15.2 | nt | nt | -2.6 | 3.3 | nt
CO[C@@H]1O[C@@H]2COC(c3ccccc3)O[C@@H]2[C@@H](OC)[C@@H]1O (some centres not stated) | -2.4 | nt | -18.7 | -9.9 | 2.2 | nt | nt | i
COCCn1c(SCc2ccc(Cl)cc2)nc2c1c(=O)[nH]c(=O)n2C | nt | 8.2 | -4.3 | -25.2 | nt | 0.6 | 1.2 | i
Cc1cccc(NC(=O)C(=O)NCC2CCCN2S(=O)(=O)c2cccs2)c1 (configuration not stated) | nt | -5.8 | -8.4 | nt | nt | 3.7 | -7.3 | nt

The list itself, previewed entries included:
SMILES | PABP polyA inh | HIV Env fusion | UUG fidelity | CSC inhib | eIF4H inh | MT1-MMP act inh | MT1-MMP act inh RFP | Rce1 inhib
CCc1nc2ccc(C(=O)N(C)CCCN(C)C)cn2c1N(C)C(=O)C1CCCCC1 | nt | -4.3 | -15.2 | nt | nt | -2.6 | 3.3 | nt
CO[C@@H]1O[C@@H]2COC(c3ccccc3)O[C@@H]2[C@@H](OC)[C@@H]1O (some centres not stated) | -2.4 | nt | -18.7 | -9.9 | 2.2 | nt | nt | i
COCCn1c(SCc2ccc(Cl)cc2)nc2c1c(=O)[nH]c(=O)n2C | nt | 8.2 | -4.3 | -25.2 | nt | 0.6 | 1.2 | i
Cc1cccc(NC(=O)C(=O)NCC2CCCN2S(=O)(=O)c2cccs2)c1 (configuration not stated) | nt | -5.8 | -8.4 | nt | nt | 3.7 | -7.3 | nt
CCCC(C(=O)NC1CCCCC1)N(Cc1ccco1)C(=O)CNS(=O)(=O)c1ccccc1 (configuration not stated) | -10.3 | nt | -19.0 | -0.9 | -14.3 | 8.5 | -1.7 | i
CC(=O)Nc1ccc(S(=O)(=O)NCCC(=O)OCC(=O)c2ccc(Br)cc2)cc1 | nt | -35.6 | -7.9 | 7.1 | nt | 0.3 | -2.2 | i
CC(=O)Oc1cc2c(cc1Cl)C(c1cccs1)CC1(CC(C)(C)NC(=S)N1)O2 (configuration not stated) | -10.0 | 27.1 | nt | 0.3 | -4.0 | -4.6 | -4.0 | nt
COc1ccc(N=C2NC(=O)S/C2=C\c2ccc(N(C)C)cc2)cc1 | ? | -62.7 | -12.8 | 11.5 | ? | -119.1 | 41.6 | i
COc1ccc(-c2[nH]ncc2CN2CCN(Cc3cccs3)CC2)cc1F | -3.4 | 3.9 | nt | -9.7 | -5.6 | 7.3 | 3.2 | i
O=C(c1ccc(CS(=O)Cc2cccc(Cl)c2)o1)N1CCN(C2CCCCC2)CC1 (configuration not stated) | 3.2 | 3.8 | 5.9 | -6.0 | 35.0 | -6.0 | -1.6 | i
Cc1ccc(CN2CCN(/N=C/c3ccc(C(F)(F)F)cc3)CC2)cc1 | 0.2 | 14.3 | -7.6 | 36.3 | -5.8 | -4.5 | -5.7 | i
Cc1cccc(-c2nc3ccccc3c(=O)n2NC(=O)c2cccs2)c1 | -16.1 | nt | -9.4 | nt | -2.6 | 5.7 | -1.1 | i
Cc1[nH]c2ccccc2c1C(=O)C(=O)NC1CC1 | -0.1 | 6.9 | -2.6 | -11.0 | -6.1 | 0.7 | 6.4 | i
N/C(Cn1nnc(-c2ccccc2)n1)=N\O | 7.3 | -23.7 | -5.4 | -13.9 | 0.7 | -2.8 | 2.6 | i
O=C(NCCSCc1ccco1)Nc1cccc(Cl)c1 | 3.8 | nt | -11.7 | 22.4 | -1.0 | -2.6 | -2.4 | i
O=C(NCCS(=O)(=O)N1CCN(Cc2ccccc2)CC1)c1ccccc1 | nt | -6.4 | -10.4 | 5.0 | nt | 0.6 | 4.4 | i
Cc1ccnc(NC(=O)C2CCN(S(=O)(=O)c3c(C)c(C)cc(C)c3C)CC2)c1 | 11.6 | nt | -0.3 | 59.9 | -6.4 | -3.1 | -8.8 | i
NC(=O)c1nn(-c2ccccc2)nc1N | 1.5 | -189.9 | -5.1 | 16.4 | 5.8 | -15.4 | -6.8 | i
Cc1cccc(OCCCC(=O)NC(C)c2ccccc2)c1 (configuration not stated) | 1.6 | nt | nt | -5.8 | -3.1 | 1.5 | -0.7 | i
CCOC(=O)N1CCC(c2nc3ccccc3[nH]2)CC1 | -10.9 | nt | -9.5 | -10.9 | -1.1 | 5.8 | -2.1 | i
N#C/C(=C\C1CC2C=CC1C2)c1nc2ccccc2[nH]1 (configuration not stated) | 1.2 | 23.6 | -7.5 | -5.2 | -6.6 | -57.4 | 8.1 | i
COc1cccc(/C(O)=C2/C(=O)C(=O)N(c3cc(C)on3)C2c2cccs2)c1 (configuration not stated) | 21.3 | nt | -15.4 | 4.5 | 1.0 | -11.8 | -4.3 | i
Cc1ccc(C(=O)OCC(=O)NCc2ccc3c(c2)OCO3)s1 | -13.7 | nt | -8.2 | -5.8 | -3.9 | 0.7 | 3.6 | i
CN1C(C)(C)CCCC1(C)C | nt | 12.8 | -0.1 | -16.4 | nt | 4.4 | 3.9 | nt
CCC[C@H]1COCCS(=O)(=O)N1Cc1ccc(Br)cc1 | -9.7 | nt | nt | 1.4 | -8.3 | nt | nt | i
Cc1ccccc1-n1c(=O)c(C#N)cc2c(=O)n3ccccc3nc21 | 12.8 | -19.2 | -9.3 | -9.4 | 17.8 | -2.5 | 5.2 | i
C=C(C)COc1ccc(-c2[nH]ncc2-c2ccc(OC)c(OC)c2)c(O)c1 | -6.5 | nt | -24.5 | 92.0* | -7.0 | -4.9 | -25.0 | i
COC(=O)N/N=C/c1cccc([N+](=O)[O-])c1 | 2.3 | -18.3 | nt | -12.7 | -0.1 | 0.2 | 2.4 | i
CC(=O)c1cccc(NC(=O)COC(=O)c2cccs2)c1 | -7.9 | 10.7 | -19.4 | -0.6 | 11.7 | -4.5 | 4.0 | i
c1ccc(CNc2nc3ccccc3n2CCN2CCOCC2)nc1 | 25.0 | nt | -19.2 | 2.4 | -2.4 | 4.2 | -0.5 | i
COc1cccc(CN2CC(C(=O)N(C)Cc3ccnc4ccccc34)CCC2=O)c1 (configuration not stated) | 2.5 | -14.1 | -8.9 | nt | -6.9 | 1.9 | -2.1 | i
COC(=O)[C@@H]1C[C@@]2(O)[C@H](O)[C@H](O)[C@H](O)C[C@H]2N1Cc1cc(OC)cc(OC)c1 | -1.3 | 13.5 | -9.6 | 13.4 | 6.7 | 2.1 | -0.7 | i
OCCC1CN(Cc2cnc(N3CCCC3)s2)CCN1C1CCCC1 (configuration not stated) | -1.0 | -11.4 | -4.3 | -2.4 | 9.1 | 4.6 | 3.6 | i
Cc1ccc(S(=O)(=O)CCC(=O)OCC(=O)NCc2ccccc2)cc1 | nt | -124.8 | nt | 6.5 | nt | -3.5 | 1.6 | i
Cc1ccccc1NC(=O)C1CC(=O)N(c2ccc3c4c(cccc24)CC3)C1 (configuration not stated) | 0.2 | -75.4 | -10.6 | -1.8 | -7.2 | 3.8 | -1.4 | i
CCCCn1c(N)c(N(CCOC)C(=O)CCS(=O)(=O)c2ccc(Cl)cc2)c(=O)[nH]c1=O | nt | 3.9 | -7.9 | 7.9 | nt | 1.7 | 1.9 | i
COc1c(C)cc(C(O)c2ncc(-c3ccccc3Cl)[nH]2)cc1C (configuration not stated) | nt | -6.2 | -15.6 | nt | nt | -3.7 | -6.3 | nt
COc1ccc(C2NC(=S)NC3=C2N2CCC3CC2)cc1 (configuration not stated) | -0.4 | -6.1 | nt | -13.1 | -3.1 | 1.3 | -3.0 | i
O=C(CNC(=O)C1CCCCC1)Nc1ccc(F)c(Cl)c1 | -1.5 | 14.8 | 2.4 | 11.0 | -8.0 | 2.5 | 0.2 | i
FC(F)(F)c1cc(-c2cccs2)nc2ncnn12 | -0.2 | -6.7 | -23.9 | -1.6 | 9.2 | -4.0 | -0.2 | i
Cc1ccc(C)c(N2CC(C(=O)Nc3cc(C)on3)CC2=O)c1 (configuration not stated) | 2.0 | 6.4 | -5.3 | -6.9 | -0.5 | -0.9 | 1.0 | i
Cc1ccc(C2CC(c3cccs3)=NN2C(=O)CSC2=NN3CCCC(=O)N=C3S2)cc1 (configuration not stated) | -11.6 | -18.9 | 0.8 | -2.3 | -0.9 | -3.5 | -1.5 | i
Cc1ccc(S(=O)(=O)CCC(=O)OCc2ccccc2F)cc1 | -3.5 | 7.0 | nt | -7.6 | -0.1 | -3.6 | -1.0 | i
CCC(C)n1c(=S)[nH]c2ccccc2c1=O (configuration not stated) | -2.4 | -5.1 | nt | -12.5 | 0.1 | -1.4 | -0.6 | i
CC1=C(C(=O)OCC2CCCO2)C(c2ccccc2OC(C)C)C2=C(CC(c3ccco3)CC2=O)N1 (configuration not stated) | 6.3 | nt | -1.4 | 3.3 | 16.2 | -3.0 | -0.3 | nt
O=C(NCc1cccc(OC(F)(F)F)c1)c1ccc2c(c1)S(=O)(=O)c1cc(Cl)ccc1C2=O | nt | -53.6 | 1.6 | 1.0 | nt | 3.3 | 5.5 | nt
CC1=CC2(C)C(C3C(C)=CC2(C)C(=O)C3(C)O)C(C)(O)C1=O (configuration not stated) | nt | -33.7 | -14.0 | nt | nt | -6.8 | -1.5 | nt
Cc1ccc(NC(=O)CSc2nnc(NC(=O)c3ccc(S(=O)(=O)N4CCOCC4)cc3)s2)cc1 | 2.3 | -20.4 | 13.1 | 1.5 | 7.9 | 0.2 | 0.9 | i
CN(C)c1ccc(/C=N/NC(=O)CN(c2ccccc2Cl)S(C)(=O)=O)cc1Br | 1.5 | nt | -16.2 | -9.4 | 7.9 | -1.3 | -3.2 | nt
Cc1ccc(C(=O)Cn2nnc(-c3ccccc3-n3cnnn3)n2)cc1 | -1.7 | nt | -4.2 | -9.3 | 1.6 | 4.1 | 2.4 | i
O=C1NCCN/C1=C\C(=O)c1ccccc1 | 16.0 | nt | -1.4 | -16.0 | 7.5 | 2.1 | 2.2 | i
O=C(N1CCNCC1)N1CCOCC1 | -11.7 | nt | nt | 5.4 | -2.5 | nt | nt | i
COc1cc2c(cc1OC)CN(Cc1ccc(OC)c(C)c1OC)CC2 | -3.2 | ? | -10.3 | -2.6 | -8.6 | 2.6 | 1.7 | i
CCOC(=O)/C(C(=Nc1ccccc1)Nc1ccccc1)=C(\C)O | 3.7 | -3.4 | 3.2 | 25.9 | -12.3 | -3.5 | -2.8 | i
CCOc1cc(CNc2ccccc2)cc(Br)c1OCC(=O)NC(C)(C)C | -7.4 | nt | -0.9 | 34.7 | -0.2 | -8.3 | -15.2 | i
CCOC(=O)c1c(NC(=O)CSc2nnc(-c3ccccc3)o2)sc(C(C)=O)c1C | 2.5 | -48.4 | -13.6 | 1.4 | 5.5 | -6.3 | -4.5 | i
COc1ccc2nc3c(cc2c1)c(NC(=O)C1CCCO1)nn3CC(C)C (configuration not stated) | 5.9 | nt | -9.8 | -2.8 | 2.9 | 5.7 | 2.3 | i
